# High-throughput results (PubChem BioAssay)
# HUVEC tox TNFa = cytotoxicity in TNFa-stimulated HUVEC, primary screen, cytotoxicity control for VCAM1 expression modulator project, imaging, Hoechst nuclei count; HUVEC TNFalpha-stimulated, Hoechst cell count; cell count reduction, % at 2 µM; 0.17% of 93,000 active;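 active = cell count reduction exceeding the screen mean by over 5 SD, scaled to untreated wells per plate, cut at about 78% in these data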;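 note: cells counted after 24 h of TNF alpha exposure following the 1 h pretreatment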
# VCAM1 TNFa inh = inhibitors of TNFa-induced VCAM1 expression, primary screen, imaging, HUVEC, TNFa stimulus, immunofluorescence | HUVEC TNFa-induced VCAM-1 immunofluorescence, high-content imaging | inhibition, % at 2 µM | 0.48% of 95,000 active | AID 802, 2007;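 active = inhibition above the batch mean plus 3 SD, with images confirmed as a hit by eye, cut at about 37% in these data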;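 note: 0% = TNF-stimulated DMSO wells and 100% = unstimulated control wells; not every result past the cut was called active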
# cytoskel mod = modifiers of F-actin cytoskeleton organization, primary screen, imaging, HUVEC, phalloidin staining, high-content imaging; 0.18% of 91,000 active; HUVEC TNFa F-actin phalloidin imaging; inhibition, % at 2 µM; AID 836, 2007;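 active = inhibition above the batch mean plus 3 SD and confirmed as a hit by visual image inspection, cut at about 30% in these data, passing the limit was not always enough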; note: strong numbers were not always called active
# HUVEC tox IL1B = cytotoxicity in IL-1B stimulated HUVEC, primary screen, cytotoxicity control for IL-1B NFkB translocation project, imaging, Hoechst nuclear count, IL-1B stimulus; HUVEC cell count loss; cell count reduction, % at 2 µM; 0.41% of 94,000 active; AID 845, 2007;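 active = cell count reduction more than 3 SD above the screen-wide mean, cut at about 70% in these data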;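 note: normalized per plate to untreated control cells as the no-loss baseline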
# PTPN22 inh 2 = PTPN22 phosphatase inhibitors, primary screen, biochemical, DiFMUP fluorescence, 2 µM | inhibition, % at 2 µM | Tyrosine-protein phosphatase non-receptor type 22 (Homo sapiens), Q9Y2R2 | 0.21% of 96,000 active | recombinant LYP catalytic domain | AID 640, 2007;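 active = inhibition at 2 µM at or above a set limit, the screen mean plus 3 SD, cut at about 24% in these data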;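 note: 0% = DMSO with enzyme and 100% = enzyme fully blocked by orthovanadate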
# Target sequence (Q9Y2R2 whole entry, looked up, the tested form may be a part): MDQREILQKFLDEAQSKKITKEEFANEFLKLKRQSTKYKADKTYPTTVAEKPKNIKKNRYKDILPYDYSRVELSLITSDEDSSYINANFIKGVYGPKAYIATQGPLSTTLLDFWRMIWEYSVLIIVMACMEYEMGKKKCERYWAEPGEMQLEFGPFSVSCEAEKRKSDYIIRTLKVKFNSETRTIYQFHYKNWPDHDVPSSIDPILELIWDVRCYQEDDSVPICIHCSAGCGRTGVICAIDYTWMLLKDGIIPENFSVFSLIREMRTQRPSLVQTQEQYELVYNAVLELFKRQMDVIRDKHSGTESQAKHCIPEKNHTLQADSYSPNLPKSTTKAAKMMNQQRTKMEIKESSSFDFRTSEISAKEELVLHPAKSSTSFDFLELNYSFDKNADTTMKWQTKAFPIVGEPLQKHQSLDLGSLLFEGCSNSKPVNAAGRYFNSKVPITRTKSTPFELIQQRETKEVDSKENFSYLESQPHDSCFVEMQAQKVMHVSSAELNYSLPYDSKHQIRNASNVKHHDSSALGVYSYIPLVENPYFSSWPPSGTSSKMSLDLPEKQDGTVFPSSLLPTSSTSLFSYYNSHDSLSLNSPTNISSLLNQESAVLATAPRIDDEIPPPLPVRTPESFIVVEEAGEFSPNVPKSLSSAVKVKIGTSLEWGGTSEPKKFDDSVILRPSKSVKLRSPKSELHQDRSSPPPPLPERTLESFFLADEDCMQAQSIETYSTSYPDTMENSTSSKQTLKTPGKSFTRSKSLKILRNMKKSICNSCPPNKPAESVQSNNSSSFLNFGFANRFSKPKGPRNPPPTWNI
# LYP act = LYP phosphatase activators, primary screen, biochemical, DiFMUP fluorescence, 2 µM. Tyrosine-protein phosphatase non-receptor type 22 (Homo sapiens), Q9Y2R2. recombinant LYP; 0 = plate median, 100 = signal doubled. activation, % at 2 µM. 0.11% of 96,000 active;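 active = activation at 2 µM above a set limit, the mean plus 5 SD, cut at about 37% in these data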
# PTK2B oligo ant = antagonists of Pyk2 self-association, primary screen, Q293 cells, FERM NanoBiT luminescence, HTS; Protein-tyrosine kinase 2-beta (Homo sapiens), Q14289; stronger effect = lower value; z-score (the deposit names both 25 µM and 10 µM); 0.83% of 99,000 active; AID 1347419, 2020;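 active = Z-score of -3 or lower, scaled per plate to the spread of control and sample wells; inactive = z-score above -3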;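 note: negative z-score means lost luminescence so less FERM oligomerization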
# ERa SRC1 inh = ERα–SRC-1 coactivator interaction inhibitors, primary screen, biochemical, TR-FRET, ERα LBD, estradiol-bound; 1.7% of 86,000 active; Estrogen receptor (Homo sapiens), P03372; inhibition, % at 25.6 µM; TR-FRET ER-alpha LBD / SRC-1 peptide; in the data active = inhibition above about 50%;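 note: 0% = receptor plus peptide control and 100% = peptide only without receptor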
# Active calls of the source: *; nt = not tested or not shown; [ ] = remark or other dose. This is a subset, so the mix of outcomes need not match the whole.
item	Structure	HUVEC tox TNFa	VCAM1 TNFa inh	cytoskel mod	HUVEC tox IL1B	PTPN22 inh 2	LYP act	PTK2B oligo ant	ERa SRC1 inh
1	COc1ccc(C(=O)N2CCN=C2SCc2cccnc2)cc1OC	-23	14	-7	6	0	-3	nt	-10
2	CCOC(=O)c1nnn(CC(=O)Nc2ccccc2OC)c1C(=O)OCC	-1	12	-5	-10	6	-4	-0.55	-5
3	CCOc1ccc(-c2nn(-c3ccccc3)cc2/C=C(\C#N)S(=O)(=O)c2ccccc2)cc1C	-1	7	21	0	-2	5	-0.34	nt
4	CCSc1nnc2c(n1)[nH]c1c(C)cccc12	1	9	9	-61	-4	2	-0.65	-4
5	CCOC(=O)c1cc(C(=O)OCC)c2cccc(C)n2c1=O	-22	-8	7	-4	-8	4	0.65	nt
6	O=C1c2ccccc2C(=O)N1Cc1nc2ccccc2c(=O)n1CCN1CCOCC1	5	-18	-18	-12	3	-5	-0.2	-2
7	COc1ccc(CCN2C(=O)c3[nH]nc(-c4ccccc4O)c3C2c2cccc(Cl)c2)cc1 (configuration not stated)	-20	14	11	7	6	-4	-3.5*	6
8	Cc1ccc(NC(=O)CN2C(=O)N/C(=C/c3ccco3)C2=O)cc1	-2	17	-6	-6	-1	-1	-0.1	nt
9	Cc1cc(OCC(=O)Nc2cc(-c3nn4c(C)nnc4s3)ccc2C)ccc1Cl	-18	-5	-4	14	2	-5	nt	-45[fluorescence artefact?]
10	COc1ccc(C(=O)CSc2nc3cccnc3n2C)cc1	-20	15	8	-6	-2	1	1.1	9
11	O=c1oc(-c2ccccc2)nc2ccsc12	-25	14	14	16	-1	0	0.83	-5
12	COc1cccc(Oc2cncnc2-c2ccc(OC)cc2O)c1	-9	10	8	-28	-8	6	-1.8	-7
13	Cc1cc(C)n(-c2nc(-c3cccc(Cl)c3)cs2)n1	86*	90*	-28	15	-4	3	-0.14	-4
14	O=C(O)CCC(=O)CCC(=O)c1ccc(Cl)cc1	-30	4	10	-46	-5	1	-0.81	0
15	COc1ccc(S(=O)(=O)N(CCCN2CCOCC2)Cc2ccc(OC)c(OC)c2)cc1	nt	nt	nt	nt	3	-2	1.2	-9
16	COc1ccc(OC)c(-c2nc3c(C)n[nH]c(=O)c3[nH]2)c1	-1	24	2	-9	-1	5	-0.88	nt
17	O=C(CCn1cnc2ccccc2c1=O)Nc1nc2c(s1)CCCC2	7	4	5	-35	0	-3	1	18
18	CC(=O)Nc1cc2c(cc1NC(=O)c1cnccn1)OCCO2	-31	-2	-14	-4	-12	11	0.36	-3
19	COc1ccc(OCC(=O)Nc2cccc(C(C)=O)c2)cc1	-12	28	15	8	1	-2	0.24	-7
20	Cc1nc(CSc2nnc3scc(-c4ccccc4)n23)cs1	-1	25	22	12	11	-12	0.29	4
21	O=C(O)c1cc2ccc3ccccc3c2oc1=O	-4	24	-12	-4	-5	7	2	5
22	CCOC(=O)c1sc(=S)n2c1[nH]c(=O)c1ccc(C(=O)OC)cc12	-10	5	3	-16	-2	1	0.9	9[fluorescence artefact?]
23	COc1ccc(-c2nnc(SCC(=O)Nc3cc(C)on3)n2C)cc1OC	22	19	16	-6	0	3	0.32	nt
24	O=c1cc(C23CC4CC(CC(C4)C2)C3)[nH][nH]1	nt	-2	5	nt	4	-4	0.49	-11
25	CCCOC(=O)c1cccc(NC(=O)C(C)(C)C)c1	-14	20	3	-19	-2	0	0.56	0
26	CC(C)Nc1nc(N(c2ccccc2)c2ccccc2)nc(-n2ccnc2)n1	-28	-3	-11	2	-8	7	-0.15	4
27	c1ccc2c(c1)Cn1c-2nc2ccccc21	-12	-13	-10	-12	9	-6	-0.11	-5
28	O=C(Cc1ccc(Cl)cc1)Nc1cccc(-c2nnc(-c3ccco3)o2)c1	-32	5	30	-15	1	-4	-1.6	nt
29	NC(=O)c1ccsc1NC(=O)C1CCCCC1	-18	14	-14	-79	10	-12	nt	-6
30	COc1cc2c(cc1NC(=S)Nc1cccc(C)c1)oc1ccccc12	-20	26	-22	-16	9	-8	-0.91	nt
31	CCn1c(CNc2ccc(C)cc2)nnc1SCC(N)=O	-38	-20	0	-13	2	-2	1	-13
32	O=C(CN1CCN(C(=O)c2ccccc2)CC1)Nc1ncc(Br)cc1Br	2	0	-6	-44	-8	5	0.46	3

# Single values from the results shown:
# Under VCAM1 TNFa inh, cpd 10 shows 15
# Under PTK2B oligo ant, cpd 14 shows -0.81

# (cont.)
item	Structure	HUVEC tox TNFa	VCAM1 TNFa inh	cytoskel mod	HUVEC tox IL1B	PTPN22 inh 2	LYP act	PTK2B oligo ant	ERa SRC1 inh
33	COc1ccccc1C(=O)Nc1cc(-c2nn3c(C)nnc3s2)ccc1C	-10	11	-8	-38	0	-2	nt	nt
34	O=[N+]([O-])c1cccc(/C=N/n2c(COc3ccccc3)n[nH]c2=S)c1	-35	-8	-10	-11	18	-18	0.06	nt
35	COCCCn1c(=N)c(C(=O)NCc2ccc3c(c2)OCO3)cc2c(=O)n3ccccc3nc21	-18	27	4	-4	5	-7	-0.52	19[fluorescence artefact?]
36	Cc1ccc(Nc2cc(=O)[nH]c(=O)[nH]2)c(C)c1	-9	6	-21	-9	8	-4	-0.1	nt
37	O=C(Nc1ccccc1N1CCCC1)c1ccc(Br)o1	5	0	-14	-10	-13	12	0.02	-1
38	C=CCn1c(CCNC(=O)c2cccs2)nnc1SCC(=O)Nc1cccc(C(C)=O)c1	0	-16	6	-3	-6	6	0.44	-29
39	CC(=O)Cc1nsc(NC(=O)c2ccc(COc3ccccc3)o2)n1	1	3	6	28	-4	3	-0.69	9
40	CC(=O)Cc1nsc(NC(=O)c2ccco2)n1	-2	-6	5	-5	-8	6	-0.05	nt
41	O=C(CCc1ccccc1)NC(NC(=S)Nc1cccc(Cl)c1)C(Cl)(Cl)Cl (configuration not stated)	-5	18	-4	-10	10	-8	-1.6	28[fluorescence artefact?]
42	CCOc1cc(S(=O)(=O)NCc2ccc3c(c2)OCO3)c(C)cc1C	-10	8	4	-18	7	-5	-0.1	-7
43	CN(C)C(CNS(=O)(=O)c1ccc(Cl)cc1)c1cccnc1 (configuration not stated)	-10	8	1	-16	1	-3	nt	3
44	O=C(c1cc(-c2ccncc2)nc2ccc(Br)cc12)N1CCN(c2ccccn2)CC1	nt	100*	84*	-39	-2	1	-0.47	7
45	CCCN1C(=O)c2ccc(C(=O)NC3CCCCC3)cc2C1=O	-33	1	3	-5	5	-9	-0.33	0[fluorescence artefact?]
46	Cc1ccc2[nH]c(=O)c3cc(C(=O)N(CCCOC(C)C)Cc4ccco4)sc3c2c1	-20	12	-8	-9	5	-5	nt	3
47	O=C(CSc1nc(C2CC2)nc2ccccc12)N1CCc2ccccc2C1	-10	-11	10	-9	-6	5	nt	nt
48	N#CC(c1cccc(C(F)(F)F)c1)(c1ncc(C(F)(F)F)cc1Cl)N1CCOCC1 (configuration not stated)	-12	7	13	-4	40*	-38	1.3	nt
49	CC(C)(C)n1nc(-c2ccc(Cl)cc2)c2c(N)ncnc21	-20	21	8	6	-6	3	-0.65	nt
50	CCCOc1ccc(-c2nnc(-c3ccco3)o2)cc1	-34	8	1	1	-1	1	-1.3	6
51	CCn1c(COc2ccc(Cl)cc2)nnc1SCC(=O)Nc1ccc2c(c1)OCCO2	-15	4	-37	-6	-12	10	0.26	14
52	COc1ccc(-c2cc3ccccc3oc2=O)cc1NC(=O)c1ccc([N+](=O)[O-])o1	nt	74*	0	5	-2	6	-0.94	nt
53	CCOc1ccccc1-c1cc(C(=O)N/N=C/c2ccc3c(c2)OCO3)c2ccccc2n1	2	6	3	8	7	-6	-2.4	nt
54	CC1(C)CC(=O)C(C=Nc2ccc(O)cc2)=C(O)C1	-5	-4	4	-15	-14	11	-0.69	-1
55	CCN1CCCC1CNS(=O)(=O)c1ccc(C(=O)Nc2ccccc2)cc1 (configuration not stated)	-31	16	5	-6	-1	-2	-0.01	12[fluorescence artefact?]
56	CCOC(=O)Cn1c(-c2ccccc2)nc2ccccc2c1=O	-18	12	-3	-53	-13	17	0.26	nt
57	Nc1cc(C(=O)OCC(=O)NCc2ccco2)ccc1Cl	-18	-1	-9	-22	-8	3	0.27	44[fluorescence artefact?]
58	COc1cc(C)c(Cl)c(C)c1S(=O)(=O)NCc1ccc2c(c1)OCO2	-6	-4	0	11	9	-10	1.1	-5
59	Cc1ccc(CNC(=O)C(C)OC(=O)c2cccs2)cc1 (configuration not stated)	6	20	nt	-6	-20	22	0.92	2
60	O=C(Nc1nc2ccccc2[nH]1)c1ccc(Cl)c(S(=O)(=O)N2CCCC2)c1	-19	-2	38	3	5	-2	-1.4	3
61	CCCc1nc(NCc2ccncc2)c2nnn(Cc3ccccc3F)c2n1	-20	2	20	19	2	2	-0.2	9[fluorescence artefact?]
62	CCc1c(O)nc(SCC(=O)N2CCCCC2)n(-c2ccccc2C)c1=O	15	-24	-36	-16	-6	4	1.4	-3
63	COc1ccc(S(=O)(=O)N(CC(=O)NC2CC2)c2ccc(C)cc2)cc1OC	2	6	-2	-18	5	-6	0.49	-6
64	CCc1c(C)nc2[nH]nc(-c3ccccc3C)n2c1=O	-43	20	-11	-29	-9	9	1.3	0
65	COc1ccc(NC(=O)CSC2=C(C#N)C(c3ccco3)C3=C(CCCC3=O)N2)c(OC)c1 (configuration not stated)	28	4	-2	22	8	-7	0.42	-2
66	CCN(CC)S(=O)(=O)N1CCC(C(=O)NCC2COc3ccccc3O2)CC1 (configuration not stated)	12	-3	-27	-13	8	-5	0.37	-6
67	CC(C)c1nc(NCC2CCCO2)c(C#N)c2c1COC(C)(C)C2 (configuration not stated)	-6	20	11	10	12	-11	-1.2	-1
68	CCc1ccc(-c2csc3ncn(CC(=O)N4CCOCC4)c(=O)c23)cc1	-6	8	-3	21	-3	0	0.53	-9
69	Cc1nonc1NC(=O)c1ccc(Cl)c(S(=O)(=O)N2CCCCC2)c1	-24	2	-4	-3	-7	4	-0.35	6[fluorescence artefact?]
70	Cc1cc(NC(=O)Nc2ccc(F)c(Cl)c2)no1	-20	-1	-1	-24	-16	11	-0.04	2
71	CC1CCN(C(=O)CCNC(=O)Cn2cnc3sc4c(c3c2=O)CCCC4)CC1	-3	14	0	-7	6	-9	-0.1	-6
72	COc1ccccc1C1CN(c2ccc(F)cc2F)N=C1c1cccs1 (configuration not stated)	-37	-7	-4	-2	6	-4	-1.6	-6

# Structures shown so far that contain two or more sulfur atoms:
item	Structure	HUVEC tox TNFa	VCAM1 TNFa inh	cytoskel mod	HUVEC tox IL1B	PTPN22 inh 2	LYP act	PTK2B oligo ant	ERa SRC1 inh
20	Cc1nc(CSc2nnc3scc(-c4ccccc4)n23)cs1	-1	25	22	12	11	-12	0.29	4
22	CCOC(=O)c1sc(=S)n2c1[nH]c(=O)c1ccc(C(=O)OC)cc12	-10	5	3	-16	-2	1	0.9	9[fluorescence artefact?]
38	C=CCn1c(CCNC(=O)c2cccs2)nnc1SCC(=O)Nc1cccc(C(C)=O)c1	0	-16	6	-3	-6	6	0.44	-29

# Next compounds follow.
item	Structure	HUVEC tox TNFa	VCAM1 TNFa inh	cytoskel mod	HUVEC tox IL1B	PTPN22 inh 2	LYP act	PTK2B oligo ant	ERa SRC1 inh
73	Nc1ccccc1Oc1ncc(C(F)(F)F)cc1Cl	-21	-5	38	-7	14	-12	0.25	nt
74	Cc1cc(-c2ccccc2)nc(SCc2ccc(C(=O)O)o2)n1	-14	1	3	21	8	-7	-0.03	-4
75	CCOC(=O)Cn1c2c(c(=N)c3ccccc31)CCC2	0	11	6	18	20	-17	0.58	nt
76	Cc1csc(OCc2ccc(C#N)cc2)n1	0	6	-22	13	0	4	-0.48	-5
